# Polio RdRp inh = inhibitors of poliovirus RNA polymerase binding and polymerization. P03300. poliovirus polymerase elongation, fluorescence polarization; active compounds read low. % elongation, % (compound at 16.7 µg/mL). 150,000 tested, 0.66% active; in the data active means % elongation below about 90%; further: some results filed as inactive read as strong as hits
# Target sequence (P03300 1749-2209 limits assumed): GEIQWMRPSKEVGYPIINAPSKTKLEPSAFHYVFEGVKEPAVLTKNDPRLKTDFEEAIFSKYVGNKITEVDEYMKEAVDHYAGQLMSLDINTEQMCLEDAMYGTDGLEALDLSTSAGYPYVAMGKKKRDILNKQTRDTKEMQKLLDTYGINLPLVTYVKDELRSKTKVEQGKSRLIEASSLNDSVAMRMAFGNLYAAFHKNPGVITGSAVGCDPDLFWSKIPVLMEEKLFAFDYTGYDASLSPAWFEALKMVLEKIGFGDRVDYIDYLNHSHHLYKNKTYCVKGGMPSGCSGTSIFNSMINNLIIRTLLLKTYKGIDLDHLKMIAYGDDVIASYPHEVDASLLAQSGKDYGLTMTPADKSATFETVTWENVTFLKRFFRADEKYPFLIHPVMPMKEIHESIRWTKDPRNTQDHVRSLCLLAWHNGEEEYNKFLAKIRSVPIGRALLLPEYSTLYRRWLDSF
# Polio RdRp inh intensity = recorded beside Polio RdRp inh, whose call it bears; % elongation; measured here: total intensity read-out; formula for this scale not given here;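 total fluorescence in place of polarization; lower means less elongation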
# Active calls of the source: *.
Structure | Polio RdRp inh | Polio RdRp inh intensity
COc1ccccc1N1CCN(C(=O)CSc2nc3ccccc3nc2Cc2ccc(F)cc2)CC1 | 105 | 110
CC(=O)N1CCc2c(sc(NC(=O)CSc3ccc(F)cc3)c2-c2nc3ccccc3s2)C1 | 105 | 105
CCOc1ccc(-n2c(SCc3nc(-c4ccc(OC)cc4)no3)nnc2-c2ccncc2)cc1 | 112 | 115
Cc1ccc(CN(C(=O)COc2ccc(Cl)c(C)c2)C2CCS(=O)(=O)C2)o1 (stereo not given) | 111 | 110
Cn1c(C(=O)NCc2cccc(Cl)c2)cc2oc3ccccc3c21 | 113 | 116
CCOc1ccc(-n2c(SCC(=O)Nc3cccc(Cl)c3)nc3c(oc4ccccc43)c2=O)cc1 | 101 | 106
CCc1ccccc1NS(=O)(=O)c1ccc2[nH]cc(C(=O)N(CC(C)C)CC(C)C)c(=O)c2c1 | 108 | 107
CCOC(=O)c1noc2ncn(Cc3cccc(C#N)c3)c(=O)c12 | 111 | 106
COc1ccc(C2c3c(oc4ccc(C)cc4c3=O)C(=O)N2CCCN2CCOCC2)cc1OC (stereo not given) | 104 | 107
COc1ccc(S(=O)(=O)N2CCN(C(=O)c3cc(-c4ccc(Br)cc4)n[nH]3)CC2)cc1OC | 103 | 104
Cc1cccc(-n2ncc(C(=O)N3CCC(C)CC3)c2C2CCN(C(=O)OC(C)(C)C)CC2)c1 | 95 | 76
Cn1c(=O)n(-c2ccc(F)c(Cl)c2)c(=O)c2sc3ccccc3c21 | 99 | 103
Cc1ccc(NC(=O)c2sc3nc4n(c(=O)c3c2C)CCCCC4)c(Br)c1 | 108 | 109
CCN(c1ccc(OC)cc1)S(=O)(=O)c1ccc2[nH]c(=O)ccc2c1 | 108 | 108
COc1ccc(S(=O)(=O)n2nc(C)c(S(=O)(=O)N3CCCCCC3)c2C)cc1 | 110 | 98
COc1cc(NC(=O)c2ccc(NC(=O)N3CCSc4ncccc43)cc2)cc(OC)c1 | 107 | 110
Cc1cccc(NC(=O)CSc2nc3c(oc4ccccc43)c(=O)n2C(C)C)c1 | 104 | 108
O=C(NCC(c1ccc2c(c1)OCO2)N1CCN(c2ccccc2)CC1)C(=O)Nc1ccccc1F (stereo not given) | 101 | 106
CCC(C)NC(=O)Cn1c(=O)n(-c2ccc(C)c(C)c2)c(=O)c2c(C)c(C(=O)N(CC)CC)sc21 (stereo not given) | 104 | 107
CCOc1cc(-c2nnc(SCC(=O)NCc3ccccc3)nc2-c2ccc(OC)c(OCC)c2)ccc1OC | 107 | 115
CCc1cccc(Nc2ncnc3onc(-c4ccc(F)cc4)c23)c1 | 114 | 115
CCc1ccccc1NS(=O)(=O)c1ccc2[nH]cc(C(=O)NC3CCCC3)c(=O)c2c1 | 107 | 104
COc1ccc(N2CCN(S(=O)(=O)c3ccc4c(c3)CC(C)N4C(C)=O)CC2)cc1 (stereo not given) | 101 | 98
COc1ccccc1NC(=O)CSc1oc(-c2cccs2)nc1S(=O)(=O)c1ccc(Br)cc1 | 106 | 107
CCc1ccc(NC(=O)c2ccc3c(O)c(S(=O)(=O)c4ccccc4)c(=O)[nH]c3c2)cc1 | 103 | 98
CCOCCCNC(=O)Nc1cc(C(=O)NCc2ccc(C(C)C)cc2)ccc1N1CCCC1 | 110 | 112
CCN1c2ccccc2-c2nc(SCC(=O)NCc3ccc(C)cc3)ncc2S1(=O)=O | 110 | 116
COc1ccc(-c2nc(CN3C(=O)CN=C(c4ccccc4)c4cc(Cl)ccc43)c(C)o2)cc1 | 107 | 103
COc1ccc(CCNC(=O)c2cc3c(-c4ccc(OC)c(OC)c4)nn(C)c3s2)cc1OC | 107 | 104
CCOc1ccccc1C(=O)NCc1ccc2c(c1)CCN2C(=O)c1ccccc1 | 116 | 111
CC(=O)N1CCc2cc(Br)cc(S(=O)(=O)NCCc3ccc(Cl)cc3)c21 | 108 | 108
CC(C)COc1ccc(C(=O)NCC2(N3CCN(C)CC3)CCCCC2)cc1 | 107 | 109
CCc1ccc(-n2c(=O)c3c(C)c(C(=O)N(C)C)sc3n(Cc3ccccc3F)c2=O)cc1 | 103 | 114
O=C(Nc1cc(Cl)cc(Cl)c1)c1ccc(F)c(S(=O)(=O)N2CCCC2)c1 | 101 | 106
COc1cc(CN(C(=O)c2ccc(C)cc2)c2ccccn2)cc(OC)c1OC | 108 | 110
COC(=O)c1ccc2c(c1)N(Cc1cc(C)ccc1C)C(=O)c1ccccc1S2 | 109 | 114
COC(=O)c1ccccc1NC(=O)CCCN1C(=O)C(c2ccccc2)Oc2cccnc21 (stereo not given) | 105 | 111
CCOC(=O)c1ccc(NC(=O)CCS(=O)(=O)c2ccc(C)cc2)cc1 | 106 | 109
CCCN(CCC)C(=O)Cn1c(=O)n(-c2ccc(OC)cc2OC)c(=O)c2c3c(sc21)CCC3 | 98 | 103
Cc1ccc(N(C)S(=O)(=O)c2ccc3[nH]c4c(c3c2)CCCC4)cc1 | 112 | 108
COc1cc(-c2ccno2)ccc1S(=O)(=O)N1CCN(c2cccc(Cl)c2)CC1 | 106 | 104
CCc1ccccc1NS(=O)(=O)c1ccc(NC(=O)N2CCCC2)cc1 | 107 | 109
CCc1nnc2c(NCc3ccc(F)cc3)nc3ccccc3n12 | 101 | 108
CCN1C(=O)C(Cc2nc3ccccc3c(=O)n2C)c2cc(C)ccc21 (stereo not given) | 105 | 101
COc1ccc(CCNC(=O)c2ccc(Cn3c(=O)c4ccccc4n(Cc4cc(C)ccc4C)c3=O)cc2)cc1OC | 110 | 109
COc1ccc(-n2nc3c(N4CCCC(C(=O)NCCc5ccc(C)cc5)C4)nnc(C)c3c2C)cc1 (stereo not given) | 105 | 102
Cc1cccc(OC(=O)c2cc(-c3ccc(C)c(C)c3)on2)c1 | 107 | 107
Cc1c(C(=O)N2CCC(c3nc4ccccc4s3)CC2)oc2ccc(Cl)cc12 | 110 | 111
CCOc1ccc(Sc2cc(C(=O)NCCCOC)c3ccccc3n2)cc1 | 108 | 109
Cc1ccc(Nc2ccc3cc(S(=O)(=O)N4CCCCC4)ccc3n2)cc1F | 111 | 113

# Compound profiles, from the list above. Values in the order: Polio RdRp inh, Polio RdRp inh intensity
# CCOc1ccc(Sc2cc(C(=O)NCCCOC)c3ccccc3n2)cc1 is listed as 108, 109
# CCN1C(=O)C(Cc2nc3ccccc3c(=O)n2C)c2cc(C)ccc21 (stereo not given) is listed as 105, 101
# COc1ccc(-n2nc3c(N4CCCC(C(=O)NCCc5ccc(C)cc5)C4)nnc(C)c3c2C)cc1 (stereo not given) is listed as 105, 102
# CCN1c2ccccc2-c2nc(SCC(=O)NCc3ccc(C)cc3)ncc2S1(=O)=O is listed as 110, 116
# CCOc1ccccc1C(=O)NCc1ccc2c(c1)CCN2C(=O)c1ccccc1 is listed as 116, 111

# The listing picks up with the 2 entries that preceded the break.
Structure | Polio RdRp inh | Polio RdRp inh intensity
CCOc1ccc(Sc2cc(C(=O)NCCCOC)c3ccccc3n2)cc1 | 108 | 109
Cc1ccc(Nc2ccc3cc(S(=O)(=O)N4CCCCC4)ccc3n2)cc1F | 111 | 113
O=C(Nc1ccc(F)cc1)[C@H](CSCc1ccccc1)N1Cc2ccccc2C1=O | 104 | 107
CC1=C(C(=O)OCC2CCCCC2)C(c2ccc(Cl)cc2)CC(=O)N1 (stereo not given) | 99 | 101
CC(C)(C)C1CCc2c(sc(NC(=O)c3cc(-c4ccc(F)cc4)on3)c2C#N)C1 (stereo not given) | 101 | 103
Cc1nc2nc(SCC(=O)N(C)Cc3ccccc3)nn2c(C)c1Cc1ccccc1Cl | 106 | 109
Cc1ccc2c(c1)C(Cc1ccccc1F)C(=O)N2 (stereo not given) | 103 | 100
COc1ccc(-c2cc(C(C)=O)c(C)n2CCC(=O)Nc2cccc(C)c2C)cc1 | 106 | 111
COc1ccc(-c2cc(-c3ccc4c(c3)NC(=O)CO4)nc3c2COc2ccc(C)cc2-3)cc1 | 110 | 112
COc1cccc(N2CCN(S(=O)(=O)c3ccc(-n4cnnn4)cc3)CC2)c1 | 104 | 85
CCOc1cc(-c2nc3c(c(CC)nn3-c3ccccc3)c3cc(OC)c(OC)cc23)ccc1O | 107 | 111
CCc1ccccc1NC(=O)C(=O)NCC(c1cccnc1)N1CCc2ccccc21 (stereo not given) | 114 | 117
Cc1ccc(N2CC(NC(=O)Cc3ccc(F)cc3)CC2=O)cc1 (stereo not given) | 113 | 113
CCc1ccccc1-n1nnc(-c2nc(-c3ccccc3F)no2)c1C | 102 | 94
COc1ccccc1CN1CCNC(=O)C1=O | 105 | 107
CCCOc1ccc(NC(=O)CC2C(=O)N(c3ccc(C)cc3)C(=O)N2C2CCCC2)cc1 (stereo not given) | 101 | 100
CC(C)c1ccc(OCc2cc(=O)n3c(-c4ccccc4)csc3n2)cc1 | 118 | 117
COc1ccc(S(=O)(=O)N(CC(=O)NCCc2ccccc2)c2ccc(Cl)cc2)cc1 | 100 | 103
COc1ccc(CCNC(=O)c2ccc3c(c2)N=C(C)c2ccccc2S3)cc1OC | 114 | 116
Clc1ccc(-c2noc3ncnc(N4CCCCC4)c23)cc1 | 108 | 107
CCOc1ccc(CCNC(=O)c2cccc(-n3c(C)nc4cccnc43)c2)cc1 | 103 | 98
CCc1ccc(NC(=O)C2CCCN2S(=O)(=O)c2ccc3c(c2)CCCC(=O)N3)cc1 (stereo not given) | 110 | 109
CCOc1ccc(NC(=O)NCCc2c(C)nn(C)c2C)cc1 | 109 | 106
COc1ccc(OC)c(CCNC(=O)c2ccc3c(c2)N(Cc2ccc(C)cc2)CCS3)c1 | 104 | 107
CCc1cccc(CC)c1NC(=O)C1CCC(CNS(=O)(=O)c2cccc3nsnc23)CC1 (stereo not given) | 104 | 106
O=C(Cn1nc(-c2ccccc2)c2cnc3ccccc3c21)Nc1ccccc1 | 109 | 111
CCCn1c(=O)c2sccc2n2c(CCCC(=O)Nc3ccccc3F)nnc12 | 113 | 111
COc1ccc(-c2noc(CSCC(=O)Nc3ccc(C)cc3Br)n2)cc1OC | 106 | 112
COc1ccc(C(CNC(=O)c2oc3cc(C)c(Cl)cc3c2C)N2CCCCC2)cc1 (stereo not given) | 107 | 112
Cc1cc(C)cc(C(=O)n2nc(C)c(S(=O)(=O)N3CCCCCC3)c2C)c1 | 100 | 94
Cc1ccccc1NC(=O)Nc1cccs1 | 114 | 118
CCCCOc1ccc(C(=O)NCC(c2ccc(Cl)cc2)N2CCOCC2)cc1 (stereo not given) | 107 | 110
Cc1ccccc1C(=O)NCC(c1ccc(N(C)C)cc1)N1CCCC1 (stereo not given) | 106 | 110
COc1ccc2c(c1)c1c(c(=O)n(-c3ccc(F)c(Cl)c3)c(=O)n1CC(N)=O)n2C | 108 | 115
CCOc1ccccc1CNC(=O)C1CCN(C(=O)N2CC(CC)Oc3ccc(C)cc32)CC1 (stereo not given) | 109 | 113
COc1ccc(NC(=O)NCCn2nnc3cc(S(=O)(=O)N(C)C)ccc32)cc1 | 105 | 103
CCn1c(C(=O)NCc2cccc(Br)c2)cc2oc3ccccc3c21 | 107 | 107
Cc1cc(C)cc(NC(=O)CSc2nc3sc4c(c3c(=O)[nH]2)CCCC4)c1 | 101 | 98
Cc1ccc(C)c(CSc2cn(CC(=O)N3CCCCCC3)c3ccccc23)c1 | 113 | 113
CCCCC(=O)N(c1ccc2oc(C)c(C(C)=O)c2c1)S(=O)(=O)c1ccc(F)cc1C | 103 | 103
CCn1cc(C(=O)NCCc2ccc(C)cc2)c(=O)c2cc(S(=O)(=O)N(C)C)ccc21 | 100 | 103
CCCCOc1ccccc1NC(=O)Cn1c(-c2cncs2)nc2ccccc21 | 98 | 105
CCN(Cc1ccccc1)c1ccc(/C=N/n2cnnc2)cc1 | 103 | 105
CCOC(=O)c1c(NC(=O)Cc2coc3ccc(CC)cc23)sc2c1CCC2 | -3.0* | 25*
CCOc1ccccc1NC(=O)C(C)Sc1nc2c(c(=O)[nH]1)CCCC2 (stereo not given) | 107 | 109
Cc1ccc(N2CCN(C(=O)c3c4c(nc5ccccc35)C(=O)N(C3CCCCC3)C4)CC2)c(C)c1 | 105 | 110
CCOc1ccc(C2c3[nH]c4ccccc4c3CCN2C(=O)CCC2CCCC2)cc1 (stereo not given) | 110 | 107
CCn1c(=O)c2sccc2n2c(CCC(=O)N3CCN(c4ccc(C(C)=O)cc4)CC3)nnc12 | 103 | 106
CCn1c(=O)sc2cc(NC(=O)c3cccc(OC)c3)ccc21 | 112 | 111
CCc1ccccc1NC(=O)C1CCCN(C(=O)c2cnn(-c3ccccc3)c2-n2cccc2)C1 (stereo not given) | 107 | 109
COC(=O)c1ccc(N2C(=O)Cc3cc(OC)c(OC)cc3C2c2ccc(F)cc2)cc1 (stereo not given) | 104 | 108
COc1ccc(-c2nc3sc(CCNC(=O)C(=O)Nc4cc(C)cc(C)c4)c(C)n3n2)cc1 | 107 | 108

# Taken from above:
# Cc1ccccc1NC(=O)Nc1cccs1 in Polio RdRp inh intensity: 118
# CCOC(=O)c1c(NC(=O)Cc2coc3ccc(CC)cc23)sc2c1CCC2 in Polio RdRp inh intensity: 25*
# COc1ccc2c(c1)c1c(c(=O)n(-c3ccc(F)c(Cl)c3)c(=O)n1CC(N)=O)n2C in Polio RdRp inh intensity: 115
# CCCCOc1ccccc1NC(=O)Cn1c(-c2cncs2)nc2ccccc21 in Polio RdRp inh intensity: 105

# Carrying on:
Structure | Polio RdRp inh | Polio RdRp inh intensity
COc1ccccc1C(=O)N1c2ccccc2C(C)(c2ccc(Cl)cc2)CC1(C)C (stereo not given) | 101 | 106
O=C(CSc1oc(-c2ccco2)nc1S(=O)(=O)c1ccc(Cl)cc1)Nc1ccc(F)cc1 | 108 | 109
CCC(C(=O)NCc1ccccc1)n1nc(C)c2sc3ccccc3c2c1=O (stereo not given) | 114 | 109
CCS(=O)(=O)N1CC(=O)N(c2ccc(Cl)cc2)C(C)(C(=O)NC2CCCCC2)C1 (stereo not given) | 109 | 113
COc1cc(Cl)c(C)cc1NC(=O)c1ccc(CN2C(=O)CCn3nc(C)cc32)cc1 | 106 | 113
COc1ccc(C(=O)CCC(=O)Nc2ccc(F)cc2F)cc1 | 107 | 103
CC(=O)c1ccc(N2CCN(S(=O)(=O)c3cc(-c4noc(C)n4)ccc3C)CC2)cc1 | 98 | 95
COc1ccc2nc(NC(=O)c3ccc(S(=O)(=O)N4CCCC(C)C4)cc3)sc2c1 (stereo not given) | 108 | 118
CC(C)C1C(=O)Nc2ccc(S(=O)(=O)NCc3ccc(Cl)cc3)cc21 (stereo not given) | 103 | 110
Cc1nc(Oc2ccc(F)cc2Cl)c2oc3ccccc3c2n1 | 108 | 113

# Not all compounds are listed (hit frequency here may not be typical).
